# Mtb hypoxia rep = Mtb hypoxia fluorescent reporter inhibition | M. tuberculosis hypoxia-regulated fluorescent reporter, fluorescence | fluorescence inhibition, % (no concentration beside the values) | 0.1% of 300,000 active | AID 1159583;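 active = 35 to 45% if threefold the growth effect, above 45% if 1.5-fold the growth effect; inactive = the rest, general growth blockers included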;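 note: wells of about 50 µL received 100 nL stock; 0% = vehicle wells and 100% = reference inhibitor wells; whole bacteria with a GFP reporter of the hypoxia response; strong numbers were not always called active; many hits fall short of the cut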
# PrP 5UTR inh = inhibition of PrP 5' UTR reporter expression | AID 488862 | cell-based PrP 5' UTR mRNA reporter, plate reader | 0.35% of 340,000 active | inhibition, % (concentration not given with the values);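 active = every replicate at 50% or more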;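 note: 0 = median of the neutral control wells; tested in H4 reporter cells; numbers are from one replicate; inactives centre near -14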
# ugtP null kill = growth inhibition of S. aureus ugtP deletion strain. S. aureus RN4220 ugtP deletion, OD600 growth, 16 h; some inactives read as strong as hits. 0.54% of 330,000 active. growth inhibition, % (concentration not given with the values);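 active = z-score under -3 and OD600 up to 0.15 on both plates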;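 note: plate controls were untreated wells for no effect and antibiotic for full effect; wells of about 80 µL received 100 nL stock; the first replicate is given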
# Bead autofluor = compound fluorescence in toxin protease inhibitor counterscreen; compound autofluorescence counterscreen, microsphere flow cytometry; active compounds read high; fluorescence intensity (no concentration beside the values); 3.1% of 360,000 active; AID 624483;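 active = at least 3 SD above the mean of all compounds, about 16000 in these data; inconclusive = too few beads counted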;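 note: 100 nL of 1 mM stock went into each well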
# RN4220 kill = S. aureus RN4220 growth inhibition. OD600, 16 h. 0.33% of 330,000 active. inhibition, % (no concentration beside the values);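 active = z-score of -3 or lower and OD600 up to 0.18 on both plates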;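 note: plate controls were untreated cells for no effect and reference antibiotic for full effect; stock transfer was 100 nL into about 80 µL; one replicate is shown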
# BJeLR viability = kills HRASV12-expressing BJeLR cells. BJeLR (HRASV12) viability, CellTiter-Glo ATP luminescence, 48 h; reference of the scale not given here. inhibition, % (test concentration not listed). 0.17% of 300,000 active;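 active = replicate mean above 50%; inconclusive = above 50% but judged a plate artefact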;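 note: 50 nL library stock added to about 25 µL; numbers are from one replicate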
# Mtb hypoxia rep growth = also measured in Mtb hypoxia rep; calls as there; growth inhibition, %; measured here: M. tuberculosis growth (absorbance);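 0% = vehicle and 100% = reference antibiotic; read after six days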
# * = called active by the depositor; ? = inconclusive; . = no result given.
SMILES,Mtb hypoxia rep,Mtb hypoxia rep growth,PrP 5UTR inh,ugtP null kill,Bead autofluor,RN4220 kill,BJeLR viability
Cc1cc(N2CCOCC2)nc2ccc(NC(=O)CCC(=O)N3CCN(c4ccccc4F)CC3)cc12,-3,4,-43,10,3500,1.7,-4
COc1ccccc1C(=O)NNC(=S)NC(=O)c1sc2ccccc2c1Cl,11,-1,2,-3,2073,18,8
CC(OC(=O)Nc1cccc(Cl)c1)C(=O)OC1CCCCC1 (stereo not drawn),1,2,-46,-11,4122,-1.7,.
CCOc1cc(C=NNC(=O)C2CCCC2)ccc1OC(C)C,13,14,.,3,.,3.0,.
O=C(Nc1ccccc1N1CCN(C(=O)c2ccccc2)CC1)c1cc2ccccc2o1,.,.,-6,-3,5455,0.4,.
Cc1ccc(S(=O)(=O)N2CCOCC2)cc1NC(=O)CN1C(=O)CN(C)C1=O,-4,-3,-17,3,.,4.3,.
O=C(NCc1ccccc1)c1ccc(=O)oc1,4,-6,-19,3,3572,1.0,8
CCn1c(Cc2ccccc2)nnc1SCC(=O)Nc1ccccc1N1CCOCC1,1,3,-12,-3,4334,1.5,3
O=C(NCC(=O)N1CCN(S(=O)(=O)c2ccccc2)CC1)c1ccc2ccccc2c1,.,.,-21,.,?,.,-1
CC(=O)c1cccc(NS(=O)(=O)c2ccc(N/C=C\C(=O)c3ccc(F)cc3)cc2)c1,.,.,-50,0,2760,-8.1,3
COc1ccc2[nH]cc(C(=O)CN3CC(C)CC(C)C3)c2c1 (stereo not drawn),4,15,-6,-1,3873,0.1,-5
COc1ccccc1N1CCN(C2CCCN(C(=O)CCN3CCCCO3)C2)CC1 (stereo not drawn),5,-2,-11,5,5000,2.4,-10
Cn1c(=O)n(C)c2cc([N+](=O)[O-])c(N3CCN(C(=O)C(C)(C)C)CC3)cc21,8,12,-11,4,4380,4.3,2
C=CCN(C(=O)CSc1nc2ccsc2c(=O)n1Cc1ccccn1)c1ccccc1,0,18,-12,1,4519,3.1,1
N#Cc1c2ccc(O)cc2n2ccccc12,-6,2,-7,10,4974,-0.3,5
CC1CCCCN1S(=O)(=O)c1cccc2nonc12 (stereo not drawn),2,10,-13,3,5110,4.2,-1
COCc1[nH][nH]c(=O)c1C=Nc1ccc(OC(F)(F)F)cc1,-1,-3,0,8,2993,5.1,0
O=C1C2C(C(=O)N1N=Cc1ccc([N+](=O)[O-])o1)C1C=CC2C12CC2 (stereo not drawn),3,6,.,37,.,2.3,.
COc1ccc(CCNC(=O)c2nnc(Cc3c(F)cccc3Cl)o2)cc1OC,-5,7,-21,-8,3713,-2.2,-7
Cc1ccc(OCCCC(=O)NCc2ccco2)cc1,13,8,-16,-2,20751*,-0.5,1
COc1cccc(NC(=S)/C(=C(\[O-])c2ccc(OC(F)F)cc2)[n+]2ccccc2)c1,3,4,-16,16,3191,3.8,2
CC(C)N(C(C)C)S(=O)(=O)c1ccc(NC(=O)c2cnccn2)cc1,2,6,-12,2,4071,8.1,-3
O=C(Nc1cccc(Cl)c1N1CCOCC1)c1ccc2c(c1)OCCO2,9,7,-3,9,4378,1.9,10
C/C(C=NNC(=O)c1cc(-c2ccc(C)s2)[nH]n1)=C\c1ccccc1,10,18,.,1,.,6.8,.
CCOC(=O)NC1c2ccccc2Oc2ccccc21,22,4,-21,-2,5161,3.1,3
O=C1Nc2ccccc2C12OCCCO2,.,.,-18,-4,2822,1.6,-4
CCCc1ccc(OCCNC(=O)c2ccccc2Br)cc1,17,7,-6,24,3875,3.5,9
C=CCNC(=O)CN1C(=O)c2cccc3cccc1c23,.,.,-41,.,3639,.,-4
Nc1c(Cl)ncnc1N/N=C/c1ccnc2ccccc12,.,.,-3,.,2313,.,8
COc1ccc(N(C(=O)c2snc(C(N)=O)c2N)C(C(=O)NC2CCCC2)c2ccc3ncccc3c2)cc1 (stereo not drawn),-9,6,-15,-4,3441,-2.7,-1
CCOC(=O)c1c(CN(CC)CC)n(C)c2cc(Br)c(O)cc12,13,-3,-19,-1,4096,5.6,10
CCOC(=O)c1cnc2ccc(C)cc2c1Sc1ccccc1,.,.,-26,13,2498,2.5,-5
COc1cc2c(cc1OC)CN(C(=O)CC1CC3CCC1C3)CC2 (stereo not drawn),1,-8,-11,11,.,5.6,-7
Cn1c(N)c(NC(=S)NC2CCCCC2)c(=O)n(C)c1=O,7,4,-25,8,2867,3.8,.
Cc1ccc(N2CCN(C(=O)CN3C(=O)c4ccccc4C3=O)CC2)cc1,.,.,-33,2,3714,-0.6,0
CC1CN(c2ccccn2)C(C)CN1C(=O)C(O)(c1ccccc1)c1ccccc1 (stereo not drawn),4,9,-2,4,3888,0.9,.
Cc1onc(-c2ccccc2)c1C(=O)Nc1sccc1C#N,7,12,-9,2,5703,7.4,-10
COc1ccc(C)cc1Nc1n[n+](-c2ccccc2)c(-c2cc([N+](=O)[O-])cc(OC)c2O)s1,4,0,-6,-5,5888,3.1,13
Cc1nc(Nc2ncc3c(n2)CC(C)(C)CC3=O)nc2ccccc12,9,2,-22,6,4797,3.7,.
CC(C)(C)CN1C(N)=NC[C@H]1Cc1ccc(O)cc1,.,.,-15,.,3579,.,6

# The last 2 entries of the section before lead into the next.
SMILES,Mtb hypoxia rep,Mtb hypoxia rep growth,PrP 5UTR inh,ugtP null kill,Bead autofluor,RN4220 kill,BJeLR viability
Cc1nc(Nc2ncc3c(n2)CC(C)(C)CC3=O)nc2ccccc12,9,2,-22,6,4797,3.7,.
CC(C)(C)CN1C(N)=NC[C@H]1Cc1ccc(O)cc1,.,.,-15,.,3579,.,6
O=C(COC(=O)Cc1cccc(F)c1)NCCc1ccccc1,7,8,-3,5,5478,4.6,.
COC(=O)N1CCN(c2ccc(C(C)=O)cc2)CC1,1,6,4,1,18481*,0.4,-3
O=C(CCn1c(=S)oc2ccccc21)N1CCCCC1,10,3,-38,-8,2137,1.5,-2
CNC(=O)c1[nH]cnc1C(=O)N[C@@H](CC(C)C)C(=O)OCc1ccccc1,.,.,-11,.,3762,.,15
O=C(Nc1cccc2c1CCCC2)C1CCCN(S(=O)(=O)c2cccc3nonc23)C1 (stereo not drawn),.,.,-5,1,2285,2.9,4
COc1ccc(N2CCN(C(=O)C3CCN(S(=O)(=O)c4cccs4)CC3)CC2)cc1,-4,0,-11,57,5050,-5.8,5
O=C(NN=C/C=C/c1ccccc1)C1CC1(c1ccccc1)c1ccccc1 (stereo not drawn),7,3,.,-20,.,-10,.
Cc1cccc(C(=O)OCC(=O)NCC2COc3ccccc3O2)c1 (stereo not drawn),4,4,-17,6,3657,1.6,.
COc1ccc(N2C(=O)CC(NNC(=O)c3ccc(Br)s3)C2=O)cc1 (stereo not drawn),12,-1,-8,-2,2463,3.4,-12
CC1CCCCN1CCCNc1c(C=O)c(=O)[nH]c2ccccc12 (stereo not drawn),10,6,-21,13,3815,1.9,8
CCOC(=O)/C(C(N)=NC(C)C)=C(\O)c1ccccc1,-4,4,-7,-3,8782,6.3,-9
Cc1ccc(-c2ccc([C@H]3[C@H]4C=CC[C@@H](C)[C@@H]4C(=O)N3Cc3ccccc3)c(F)c2)cc1,.,.,-1,.,3000,.,2
Cc1ccc(C(=O)NCC(=O)OC(C)C(=O)Nc2ccc(N(C)C)cc2)cc1C (stereo not drawn),21,2,9,18,3250,6.2,-1
Cc1ccccc1-c1nc(CN2CCC(C(=O)NCCN3CCOCC3)CC2)c(C)o1,11,-1,-16,1,6942,2.9,1
Cc1cc(C)cc(N(C(=O)CNC(=O)c2ccco2)C(C(=O)NC2CCCC2)c2cccnc2)c1 (stereo not drawn),.,.,-13,12,3620,2.2,7
CC[n+]1c(C)sc2cc(C)ccc21,.,.,4,.,2140,.,-2
C[C@]12CC[C@@H](O)CC1=CCC1C2CC[C@]2(C)C(=O)[C@H](F)CC12 (stereo partly drawn),-9,18,-12,-3,3807,-3.1,.
CCN(c1ccc(F)cc1)S(=O)(=O)c1ccc2[nH]cc(C(=O)NCCCN3CCOCC3)c(=O)c2c1,0,-4,-27,0,4402,3.1,-3
O=C1Nc2c(c(=O)[nH]c(=O)n2-c2ccccc2F)C(C(F)(F)F)(C(F)(F)F)N1,8,3,-1,-2,6863,0.7,-8
Cc1cccc(OCC(=O)OCC(=O)NCC2CCCO2)c1C (stereo not drawn),2,2,-20,6,?,2.4,.
Cn1c(N)c(C(=O)COC(=O)COc2ccc(Cl)cc2Cl)c(=O)n(C)c1=O,5,9,-19,-2,4104,4.2,.
CC(C)(C)c1cc(NS(=O)(=O)c2ccc(Br)s2)no1,7,4,-15,0,5525,11,4
CC[C@]1(C(=O)OC)[C@H]2C(=O)N(C)C(=O)[C@H]2[C@H]2CN(C)C(=NC)N21,-8,0,-17,4,2884,2.1,.
CCOc1ccc(CC(=O)NNC(=O)NC2CCCCC2)cc1,-4,2,-70,4,4105,3.3,-2
CCCCn1cnc2c(Sc3c([N+](=O)[O-])ncn3C)nc(N)nc21,11,2,-7,1,3754,3.6,.
CCCN(CCC)C1=CC(=[N+]2CCCC2)CC(C)(C)C1,23,11,-2,-2,2661,3.1,9
Cn1c2ccccc2c2c(=O)oc3ccccc3c21,4,8,-39,22,3740,-3.8,.
CCC(=O)c1cc(F)c(N2CCN(S(=O)(=O)c3ccccc3)CC2)cc1C,4,5,-13,18,5298,2.7,2
NC(=S)Nc1ncc(C(F)(F)F)cc1Cl,.,.,-6,.,3310,.,0
CSCCC(NC(N)=O)C(=O)NCC1CCCCC1 (stereo not drawn),.,.,1,12,2932,1.3,-10
CCOC(=O)C1CCCN(C(=O)CSc2ccc(NC(C)=O)cc2)C1 (stereo not drawn),14,4,-13,6,4087,8.0,3
CCCn1c(C)cc(C=O)c1C,6,-1,-30,0,4269,2.2,-5
COc1cc(/C=C/C(=O)OCC(=O)N2CCN(S(=O)(=O)c3ccc(C)cc3C)CC2)ccc1OC(F)F,8,3,-16,-5,3248,-1.2,.
C#CC(CO)N(CCN(Cc1ccccc1)C(C#C)CO)Cc1ccccc1 (stereo not drawn),.,.,-23,-5,2620,14,-5
COCC(C)n1c(SCc2ccc(C(=O)OC)o2)nc2ccccc2c1=O (stereo not drawn),-2,3,-4,9,8707,-1.4,-6
CCOC(=O)C1(Cc2ccc(OC)cc2)CCN(C(=O)Cn2cnnn2)CC1,3,13,-22,11,2503,2.7,3
O=C(Nc1cc(Cl)ccc1-n1cncn1)c1cccc(S(=O)(=O)N2CCOCC2)c1,-1,0,-27,4,6239,5.8,.
CON(c1nc(Cl)nc(N(C)C)n1)S(=O)(=O)c1ccc(C)cc1,0,1,-4,23,3861,9.0,-2
Nc1nc(Cl)cc(N2CCOCC2)n1,.,.,-33,0,2138,4.5,1
COc1ccc([N+](=O)[O-])cc1NC(=O)Cc1ccc(C)cc1,5,3,-13,0,2635,5.8,5

# 6 entries picked at random from those above, as already listed:
SMILES,Mtb hypoxia rep,Mtb hypoxia rep growth,PrP 5UTR inh,ugtP null kill,Bead autofluor,RN4220 kill,BJeLR viability
COCC(C)n1c(SCc2ccc(C(=O)OC)o2)nc2ccccc2c1=O (stereo not drawn),-2,3,-4,9,8707,-1.4,-6
COc1cc(/C=C/C(=O)OCC(=O)N2CCN(S(=O)(=O)c3ccc(C)cc3C)CC2)ccc1OC(F)F,8,3,-16,-5,3248,-1.2,.
C#CC(CO)N(CCN(Cc1ccccc1)C(C#C)CO)Cc1ccccc1 (stereo not drawn),.,.,-23,-5,2620,14,-5
CON(c1nc(Cl)nc(N(C)C)n1)S(=O)(=O)c1ccc(C)cc1,0,1,-4,23,3861,9.0,-2
O=C(Nc1cc(Cl)ccc1-n1cncn1)c1cccc(S(=O)(=O)N2CCOCC2)c1,-1,0,-27,4,6239,5.8,.
Nc1nc(Cl)cc(N2CCOCC2)n1,.,.,-33,0,2138,4.5,1

# Next entries.
SMILES,Mtb hypoxia rep,Mtb hypoxia rep growth,PrP 5UTR inh,ugtP null kill,Bead autofluor,RN4220 kill,BJeLR viability
C/C(=N\NC(=S)NCc1ccccc1)c1ccc(C#N)cc1,.,.,-17,.,4404,.,-1
Cc1cccc(CC(=O)NC2CCCCCC2)c1,21,16,-37,0,3694,1.4,1
O=C1/C(=C/c2cccs2)COc2ccccc21,0,0,-27,7,2109,11,4
CCOC(=O)c1c(S(=O)(=O)NCC(=O)Nc2cccc(C)c2C)c(C)n(C)c1C,0,8,-16,3,6148,-0.6,1
C=CCN1C(=O)C(CC(=O)NCC)SC1=Nc1ccccc1CC (stereo not drawn),7,2,-32,2,4227,0.5,-5
COc1ccc(O)c(C(=O)c2cnc3c(c2)CN(C)C(=O)N3)c1,13,13,-45,6,6706,-1.5,8
N#Cc1ccc(OCc2noc(-c3ccsc3)n2)cc1,13,0,-33,5,4480,5.6,1

# Screening data: PubChem BioAssay, several laboratories
